Bioassay records (PubChem)
Bead autofluor: compound fluorescence in toxin protease inhibitor counterscreen; fluorescence intensity (concentration not given with the values); hit rate 3.1% among 360,000; AID 624483; compound autofluorescence counterscreen, microsphere flow cytometry; stronger effect = higher value;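 active = at least 3 SD above the mean of all compounds, about 16000 in these data; inconclusive = too few beads counted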;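 also: 100 nL of 1 mM stock went into each well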
Sa RN4220 lethal: growth inhibition of S. aureus RN4220, primary screen, OD600; 16 h; inhibition, % (concentration not given with the values); hit rate 0.33% among 330,000; AID 1259311, 2017;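 active = z-score of -3 or lower and OD600 up to 0.18 on both plates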;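 also: plate controls were untreated cells for no effect and reference antibiotic for full effect; stock transfer was 100 nL into about 80 µL; one replicate is shown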
Sa ugtP lethal: growth inhibition of ugtP-null S. aureus, primary screen, RN4220 ugtP deletion, OD600. AID 1259309, 2017. growth inhibition, % (no concentration beside the values). 16 h; some inactives read as strong as hits. hit rate 0.54% among 330,000;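 active = z-score under -3 and OD600 up to 0.15 on both plates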;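 also: plate controls were untreated wells for no effect and antibiotic for full effect; wells of about 80 µL received 100 nL stock; the first replicate is given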
BJeLR lethal: MLPCN primary cell-based screen for lethality selective to Ras in HRASV12 cells | BJeLR (HRASV12) viability, CellTiter-Glo ATP luminescence, 48 h; reference of the scale not given here | hit rate 0.17% among 300,000 | inhibition, % (concentration not given with the values);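 active = replicate mean above 50%; inconclusive = above 50% but judged a plate artefact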;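 also: 50 nL library stock added to about 25 µL; numbers are from one replicate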
PrP 5UTR inh: inhibition of PrP 5' UTR reporter expression; cell-based PrP 5' UTR mRNA reporter, plate reader; inhibition, % (no concentration beside the values); hit rate 0.35% among 340,000; AID 488862, 2010;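 active = every replicate at 50% or more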;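 also: 0 = median of the neutral control wells; tested in H4 reporter cells; numbers are from one replicate; inactives centre near -14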
Mtb hypoxia inh: PubChem AID 1159583 | M. tuberculosis hypoxia-regulated fluorescent reporter, fluorescence | fluorescence inhibition, % (no concentration beside the values) | hit rate 0.1% among 300,000;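 active = 35 to 45% if threefold the growth effect, above 45% if 1.5-fold the growth effect; inactive = the rest, general growth blockers included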;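 also: wells of about 50 µL received 100 nL stock; 0% = vehicle wells and 100% = reference inhibitor wells; whole bacteria with a GFP reporter of the hypoxia response; strong numbers were not always called active; many hits fall short of the cut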
Mtb hypoxia inh growth: also measured in Mtb hypoxia inh; calls as there; growth inhibition, %; measured here: M. tuberculosis growth (absorbance);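 0% = vehicle and 100% = reference antibiotic; read after six days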
Active calls of the source: *; u = inconclusive; x = no result given; & = joins results of further samples.

SMILES | Bead autofluor | Sa RN4220 lethal | Sa ugtP lethal | BJeLR lethal | PrP 5UTR inh | Mtb hypoxia inh | Mtb hypoxia inh growth
CCCCNC(=O)c1onc(CSc2ccccc2CC)c1C(=O)O | 4265 | x | x | -5 | -24 | x | x
N#CC1=C(N)Oc2cc(O)c(C=Nc3ccccc3)cc2C1c1ccccc1 (stereo not given) | 2008 | 11 | -1 | 3 | -7 | -8 | -1
O=C(CCN1CCN(Cc2ccccc2)CC1)NNC(=O)Nc1cccc(C(F)(F)F)c1 | 4461 | 0.3 | 11 | 8 | -21 | 15 | 10
CN(C)S(=O)(=O)c1ccc(C(=O)Nc2ccccc2C(=O)O)cc1 | 3546 | 5.9 | 10 | 3 | -11 | x | x
CCN(c1ccc(NC(=O)COC(=O)C(C)N=C2NS(=O)(=O)c3ccccc32)cc1)C(C)C (stereo not given) | x | 0.4 | 2 | x | -5 | 2 | 4
Cc1nc(Nc2ccc(S(N)(=O)=O)cc2)oc1C | 2502 | 1.5 | 58 | 0 | -26 | x | x
Cc1nn(C(C)c2nc(-c3ccccc3)no2)c(C)c1[N+](=O)[O-] (stereo not given) | 2465 | 2.8 | 0 | -4 | -7 | 2 | 4
COc1ccc(/C=C/C(=O)OCC(=O)Nc2ncc(Cl)cc2Cl)cc1 | 4579 | 4.0 | -1 | x | -13 | 7 | -4
O=C(CCNS(=O)(=O)c1cccc2nonc12)NCCc1ccc(Cl)cc1 | 3693 | 6.7 | -8 | 3 | -16 | 3 | 16
CC(Oc1ccccc1F)c1nnc(SCC(=O)N(c2ccccc2)C2CCS(=O)(=O)C2)o1 (stereo not given) | 3600 | 4.0 | 3 | x | 2 | 10 | 2
O=C(CSc1ncccc1C(=O)O)NC1CCCCC1 | 4940 | -5.4 | -10 | -7 | -14 | -13 | -1
Cc1cc(NC(=O)Cn2cc([N+](=O)[O-])cn2)n(Cc2ccc(F)cc2)n1 | 4425 | 11 | 7 | 2 | -20 | 9 | 0
CCN(CC)c1ccc(NC(=O)CCCOc2cccc(C)c2)cc1 | 4198 | 0.6 | 4 | 10 | -17 | -1 | 6
CCOc1ccccc1C=NNc1ccnc(=O)[nH]1 | x | 1.9 | 1 | x | x | -4 | 1
COCc1nc2sc(C)c(C)c2c(=O)[nH]1 | 4925 | 0.2 | 0 | -3 | -2 | x | x
O=C(Cc1ccc(Cl)cc1)NCCCn1ccnc1 | 10235 | 2.7 | -7 | 1 | -27 | 10 | 6
O=C(NCc1ccccc1)C(=O)NCC1OCCN1S(=O)(=O)c1cccs1 (stereo not given) | 4663 | 2.7 | -7 | 5 | -3 | 5 | 6
Cc1ccc(-c2c(C(=O)N/N=C/C3CC=CCC3)nnn2-c2nonc2N)cc1 (stereo not given) | 4157 | x | x | -7 | -16 | x | x
O=C(Nc1ccc(F)cc1)c1ccc2c(=O)n3c(nc2c1)CCCCC3 | 5974 | 5.4 | -3 | -1 | -50 | x | x
c1ccc(-c2nnc(N3CCN(c4ccccn4)CC3)c3ccccc23)cc1 | 6190 | 2.2 | 16 | 1 | -2 | 10 | 9
COc1ccc(OC)c(C=NNC(=O)c2ccc(-c3ccccc3)cc2)c1 | x | -2.1 | 2 | x | x | -1 | -3
COC(=O)c1ccccc1NC(=O)c1noc2c1CCC2 | 11189 | 10.0 | -7 | 13 | -17 | 1 | 3
NC(=O)c1ccc(C=NO)[n+](Cc2ccccc2)c1 | x | 5.8 | 6 | x | x | 2 | 11
CC(C)OP(=O)(c1ccc(N(C)C)cc1)C(Nc1ccccc1)c1cccnc1 (stereo not given) | 2427 | -4.2 | -12 | 4 | -108 | 1 | -3
CCCC(Oc1ccc(Br)cc1)c1nc2c3cc(OC)c(OC)cc3nc(=S)n2[nH]1 (stereo not given) | 2447 | 1.4 | 23 | 1 | -7 | -2 | 11
O=C(NN=C1CCCC1)c1cccc(O)c1 | u | 3.7 | 10 | 0 | -13 | 13 | 4
Cc1ccc(-c2nc(N3CCOCC3)sc2C(=O)N2CCOCC2)cc1 | 1970 | 8.6 | 11 | -18 | -19 | 1 | -5
CCC(C(=O)NC1CCCC1)N(C(=O)Cn1nnc(-c2ccc(C)o2)n1)c1ccccc1OC (stereo not given) | 3107 | 1.8 | 6 | 5 | -27 | 21 | 6
CC(C)CN(C(=O)COC(=O)c1ccccc1NCc1ccco1)c1c(N)n(Cc2ccccc2)c(=O)[nH]c1=O | x | -4.5 | -5 | 0 | -8 | 4 | -1
COC(=O)NN=Cc1cn(Cc2ccc(F)cc2)c2ccccc12 | x | 0.4 | -1 | x | x | 1 | -2
O=C(CNCCc1ccc(Cl)cc1)Nc1ccc(C(=O)N2CCCCC2)cc1 | 4169 | 0.4 | -18 | 3 | 0 | 6 | -3
Cc1nc(-c2cc(C#N)c(Sc3cccc(C(F)(F)F)c3)nc2C)cs1 | 5744 | 0.0 | 4 | -6 | -8 | 0 | -5
Brc1ccc2[nH]cc(/C=N/N3CCCCC3)c2c1 | 2316 | x | x | -6 | -7 | x | x
O=[N+]([O-])c1cccc(-c2nnc3ccccn23)c1 | x | 8.5 | 6 | -1 | x | 8 | 1
O=C(CC(=O)Nc1nc(C23CC4CC(CC(C4)C2)C3)cs1)NCCO | 6468 | 1.1 | -5 | 3 | -13 | 9 | 7
CC(C(=O)Nc1ccc(S(=O)(=O)N2CCCC2)cc1)N1CCN(C(=O)c2ccco2)CC1 (stereo not given) | 5293 | 6.2 | 3 | 2 | -41 | 15 | 7
CCOc1ccccc1C1N(c2ccc(OC)cc2)C(=O)C2CCCN21 (stereo not given) | 5878 | 2.5 | 4 | -10 | -30 | x | x
Cc1ccc(O)c(C(CCN(C(C)C)C(C)C)c2ccccc2)c1 (stereo not given) | x | 1.5&-0.5 | 2&-2 | x | x | 4&-2 | 6&5
Cc1c(OCC(=O)NC2CC(C)(C)NC(C)(C)C2)ccc2c1oc(=O)c1ccccc12 | 5386 | -5.3 | 1 | 22 | 3 | 5 | -3
COc1ccc(-n2nc(C(=O)Nc3ccc(OC)c(OC)c3)c3c4ccccc4n(C)c3c2=O)cc1 | 3776 | 6.6 | -3 | 6 | -8 | 0 | 1
CCCCc1c(O)nc(SCC(=O)NCCc2ccc(OC)c(OC)c2)[nH]c1=O | 3706 | -1.2 | -2 | 1 | -13 | x | x
O=C(Cc1cccc(NC(=O)C2CCN(C(=O)CCc3ccccc3)CC2)c1)Nc1cccc(C(=O)N2CCOCC2)c1 | 3864 | 4.6 | 7 | x | -14 | -9 | 0
CC(=O)NC(CC(=O)O)c1ccccc1 (stereo not given) | 4907 | 0.9 | 4 | -17 | x | 3 | -5
NC(=O)c1c(NC(=O)C2CCCO2)sc2c1CCCCC2 (stereo not given) | 2277 | 1.7 | -2 | -5 | -33 | 4 | 2
Cc1ccc2cc3cc(C(=O)NCCC(C)C)oc3nc2c1 | 4589 | 7.8 | 8 | -3 | -14 | 5 | 15
O=S(=O)(NCC(c1ccc2c(c1)OCO2)N1CCN(c2ccccc2)CC1)c1ccccc1 (stereo not given) | 5502 | 4.9 | 11 | -5 | 3 | 0 | 2
CN1C2=NCCN2C(=O)c2ccccc21 | 9712 | 1.8 | 2 | 0 | -28 | 6 | 11
Cn1c(SCc2nnc(-c3ccc(F)cc3)o2)nnc1C1COc2ccccc2O1 (stereo not given) | 7116 | 8.6 | 2 | -8 | 0 | 0 | 6
COc1ccc(-c2nc(N3CCOCC3)nc3n[nH]c(N)c23)cc1 | 4392 | -1.4 | 20 | -1 | 11 | 5 | 10
CCOc1ncccc1C(=O)Nc1ccc(F)c(F)c1 | 4518 | 1.5 | 3 | 9 | -21 | -1 | 9
COc1cc(-c2nnc(SCc3cc(=O)oc4cc(C)ccc34)o2)cc(OC)c1OC | 3982 | 6.7 | 17 | -9 | -12 | 7 | 10
Cc1ccccc1C(=O)NC(=S)Nc1ccccc1C(F)(F)F | 2285 | 6.6 | 48 | -8 | -11 | 5 | 5
O=C(CCc1nnc2ccc(NCc3ccco3)nn12)N1CCN(c2ccccc2F)CC1 | 5044 | -1.1 | -2 | 12 | 1 | 10 | -2
CCN(CCCNC(=O)Cn1ncc2c([nH]c3ccc(C)cc32)c1=O)c1ccccc1 | 5541 | 7.3 | 2 | 16 | -4 | 0 | -1
CCN1CC2C3C(=O)N(Cc4ccccc4)C(=O)C3[C@](CC)(C1=O)N2C(=O)c1ccc(C(F)(F)F)cc1 (stereo not given in full) | x | -0.6 | -5 | x | x | 5 | 10
Fc1cccc(CO/N=C/c2c(-c3ccccc3)nc3ccc(Cl)cn23)c1 | 16783* | x | x | -5 | 5 | x | x
CCOC(=O)C1CCN(C(=O)Nc2ccc3snnc3c2)CC1 | 9263 | 2.5 | 0 | -7 | -23 | -1 | 4
COc1ccc(C)cc1NC(=O)CCCNC(=O)Cn1cnc2sc(C)c(C)c2c1=O | 5335 | 4.3 | 4 | 13 | -59 | 4 | 3
COc1ccc(C(=O)NC(=S)Nc2ccc3oc(=O)ccc3c2)cc1[N+](=O)[O-] | 4611 | 6.1 | -6 | -1 | -8 | 5 | -3
Cc1nc2sccn2c(=O)c1S(=O)(=O)N1CCN(c2ccc(F)cc2)CC1 | 4160 | -12 | 3 | -10 | 43 | 6 | 2

Five entries drawn at random from the list so far, as already listed:
SMILES | Bead autofluor | Sa RN4220 lethal | Sa ugtP lethal | BJeLR lethal | PrP 5UTR inh | Mtb hypoxia inh | Mtb hypoxia inh growth
CCN(CCCNC(=O)Cn1ncc2c([nH]c3ccc(C)cc32)c1=O)c1ccccc1 | 5541 | 7.3 | 2 | 16 | -4 | 0 | -1
CCOC(=O)C1CCN(C(=O)Nc2ccc3snnc3c2)CC1 | 9263 | 2.5 | 0 | -7 | -23 | -1 | 4
Cc1nc2sccn2c(=O)c1S(=O)(=O)N1CCN(c2ccc(F)cc2)CC1 | 4160 | -12 | 3 | -10 | 43 | 6 | 2
Cn1c(SCc2nnc(-c3ccc(F)cc3)o2)nnc1C1COc2ccccc2O1 (stereo not given) | 7116 | 8.6 | 2 | -8 | 0 | 0 | 6
COc1ccc(C)cc1NC(=O)CCCNC(=O)Cn1cnc2sc(C)c(C)c2c1=O | 5335 | 4.3 | 4 | 13 | -59 | 4 | 3

Other compounds:
SMILES | Bead autofluor | Sa RN4220 lethal | Sa ugtP lethal | BJeLR lethal | PrP 5UTR inh | Mtb hypoxia inh | Mtb hypoxia inh growth
COc1ccc(OC)c(/C=C2\SC(=S)N(Cc3cccnc3)C2=O)c1 | 3135 | -4.0 | -2 | -3 | -15 | -4 | 7
CN(c1ccccc1)S(=O)(=O)c1cccc(NC(=O)Cc2n[nH]c(=O)c3ccccc23)c1 | x | 3.1 | 1 | x | x | 12 | 0
CCOC(=O)N1CCN(c2cc(NCCC(=O)O)c3c4c(onc24)-c2ccccc2C3=O)CC1 | 3659 | -3.4 | -13 | x | -7 | 4 | -1
Cc1ccccc1OCCCN1C(=O)C(=O)c2cccc(C)c21 | 5624 | 7.4 | 1 | 0 | -8 | 1 | 6
CCOC(=O)c1c(NC(=O)c2cccs2)sc2c1CCC2 | 11819 | 5.6 | 6 | -2 | -27 | 11 | 1
Cc1nc2cc(NCc3nc4ccccc4n3Cc3ccccc3)ccc2n1C | 3623 | 13 | 11 | 4 | 4 | 4 | 4
O=C(Nc1ccc(Cl)c(Cl)c1)N1CCSC1c1ccco1 (stereo not given) | 4371 | -4.0 | -26 | 6 | -28 | -10 | 8
CC1CCCC(C)N1C(=O)COC(=O)CNC(=O)c1ccc(Cl)cc1Cl (stereo not given) | u | 1.5 | 8 | -1 | -2 | -10 | 2
O=C(NCc1ccc(F)cc1)C1CCCN1C(=O)NCc1ccccc1 (stereo not given) | 3134 | -2.6 | 4 | 4 | -18 | -3 | -12
C(=Cc1cccnc1)c1ccncc1 | 3442 | 0.8 | 10 | x | -22 | 18 | 10
Cc1cccc(NC(=O)CCCCC(=O)Nc2cccc(C)c2)c1 | u | 1.9 | 2 | 0 | x | 13 | -4
COc1ccc(NC(=S)N(CCCN2CCOCC2)Cc2cn(C)c3ccccc23)cc1OC | 9476 | 4.6 | 11 | -11 | -15 | 3 | -2
Fc1ccc(C=NN2CCCCC2)c(F)c1 | x | 4.6 | 7 | x | x | 18 | 5
COc1ccccc1CNC(=O)c1ccccc1NS(C)(=O)=O | 20558* | -0.6 | 0 | -12 | 1 | 5 | 2
COc1cccc(Nc2nc(-c3sc(NC(=O)c4ccccc4)nc3C)cs2)c1 | 4003 | -1.2 | 60 | -1 | -15 | -5 | 9
COc1ccc(C(=O)NC(=S)Nc2ccc3c(c2)Cc2ccccc2-3)cc1 | 4675 | -5.1 | -6 | -3 | -14 | x | x
